Bioassay records (PubChem BioAssay)
PMP22 txn: modulates PMP22 transcription in S16 Schwann cells; S16 Pmp22-F2sN Schwann cells (luciferase reporters placed in the Pmp22 gene), FLuc/NLuc coincidence luminescence, 24 h; Potency, µM (titrated, usually from 57.5 µM), without a hit: at the top dose activity change, negative = inhibition, hits mostly inhibitors; actives 2% (n = 43,000); AID 1508649; active = clear falling dose curves in both reporters; inconclusive = both reporters move, but less clearly or upward; inactive = either reporter flat; the % is the NLuc reporter signal; further: on the % scale 0 is the no-effect control and ±100 the full control effect; some results filed as inactive show a strong effect at the top dose
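Rat S16 Pmp22-F2sN cells, 500-1,000/well in phenol red-free DMEM + 10% FBS, compound-treated 24 h (37C, 5% CO2). Luminescence: FLuc read, Stop&Glo added, NLuc read.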
HTT prom inh: inhibitors of huntingtin promoter activity | HEK293 HTT promoter firefly luciferase reporter (activity 0% = vehicle and -100% = no light), 24 h | Potency, µM (series often up to 57.5 µM), inactives show at the top dose activity change, negative = inhibition, usual class: inhibitors | actives 0.93% (n = 48,000) | AID 1508623; active means well fitted inhibition curve with a large enough effect; inconclusive means small, poorly fitted or top-dose-only effect; inactive means no such curve, though single readings can be large or run the other way; further: nearly all actives have a fitted effect of over 50% in size
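Quantitative HTS used concentration series of up to 57.5 uM final on HEK293 luciferase reporter cells, 24 h at 37 degrees C. Readout was Dual-Glo firefly luminescence.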
* hit, by the source's call; u = inconclusive; x = not tested or not shown; [ ] = another dose, or the depositor's remark. Potency means the concentration at half of the fitted maximal effect.

COc1ccc(C2CC(=O)Oc3c2c(=O)oc2ccccc32)c(OC)c1OC (stereo not given)
  PMP22 txn = 1%
  HTT prom inh = 2%

COc1ccc(CCNCc2ccc3c(c2)n(C)c(=O)n3C)cc1
  PMP22 txn = -10%
  HTT prom inh = -12%

CC(=O)OCC1=C(C(=O)O)N2C(=O)[C@@H](N)[C@@H]2SC1
  PMP22 txn = x
  HTT prom inh = -14%

NC(=O)c1ccc(NC(=O)c2cccn(Cc3ccccc3)c2=O)cc1
  PMP22 txn = u
  HTT prom inh = -8%

N#C[C@H](O[C@@H]1O[C@H](CO[C@@H]2O[C@H](CO)[C@H](O)[C@H](O)[C@H]2O)[C@H](O)[C@H](O)[C@H]1O)c1ccccc1
  PMP22 txn = x
  HTT prom inh = u

CCCCC12CN3CC(C)(CN(C1)C3c1ccccn1)C2=O (stereo not given)
  PMP22 txn = -12%
  HTT prom inh = -9%

O=C(NC(O)C(Cl)(Cl)Cl)NC(O)C(Cl)(Cl)Cl (stereo not given)
  PMP22 txn = x
  HTT prom inh = 2%

O=C(COc1ccccc1Cl)N1CCN(CCc2ccccn2)CC1
  PMP22 txn = -1%
  HTT prom inh = -9%

Cc1c(Cl)c(=O)oc2cc(OP(=O)(OCCCl)OCCCl)ccc12
  PMP22 txn = x
  HTT prom inh = -4%

COc1ccc(NC(=O)CCc2nc(C3=CCN(Cc4cccc(C)c4)CC3)no2)c(OC)c1
  PMP22 txn = u
  HTT prom inh = -11%

c1ccc2c(c1)Sc1ccccc1N2CC1CN2CCC1CC2 (stereo not given)
  PMP22 txn = x
  HTT prom inh = u

O=C(Nc1nc2ccccc2s1)c1cccn(Cc2ccccc2)c1=O
  PMP22 txn = -17%
  HTT prom inh = u

C[C@@H]1CC2=CC(=O)CC[C@@H]2[C@H]2CC[C@@]3(C)[C@@H](CC[C@]3(C)O)[C@@H]21
  PMP22 txn = x
  HTT prom inh = -16%

Cc1ccc(-c2nn3c(=O)cc(CN4CCN(C(=O)COc5ccc(C)c(C)c5)CC4)nc3s2)cc1
  PMP22 txn = -2%
  HTT prom inh = -14%

Cc1cc(SCc2sc(-c3ccc(C(F)(F)F)c(F)c3)nc2C)ccc1OCC(=O)O
  PMP22 txn = x
  HTT prom inh = 17%

Cc1ccccc1-n1c(/C=C/c2c(C)[nH]c3ccccc23)nc2ccccc2c1=O
  PMP22 txn = u
  HTT prom inh = u

O=[N+]([O-])c1ncc[nH]1
  PMP22 txn = x
  HTT prom inh = -6%

CCN(CC)CCc1c[nH]c2ccccc12
  PMP22 txn = x
  HTT prom inh = -2%[222 µM]

Cc1ccccc1CN1C(=O)C(C)N=C(c2ccccc2)c2ccccc21 (stereo not given)
  PMP22 txn = u
  HTT prom inh = u

O=C(COc1cc(Cl)ccc1Cl)Nc1ccc(Cl)cc1C(=O)c1ccccc1
  PMP22 txn = -21%
  HTT prom inh = -3%

Cc1ccc(-n2c(/C=C/c3cc(Br)cs3)nc3ccccc3c2=O)cc1
  PMP22 txn = -2%
  HTT prom inh = u

Cc1ccc(NC(=O)N(Cc2ccc3c(c2)OCO3)C2CCN(Cc3ccccc3)CC2)cc1C
  PMP22 txn = 14µM*
  HTT prom inh = -29%

CCOC(=O)c1c(C(C#N)=CN)c2ccc(Cl)c(Cl)c2n1C
  PMP22 txn = x
  HTT prom inh = -23%

COC1(CS(=O)c2ccccc2)CCN(CCc2c[nH]c3ccc(F)cc23)CC1 (stereo not given)
  PMP22 txn = x
  HTT prom inh = -4%

O=c1c2ccccc2nc(/C=C/c2cccc3ccccc23)n1-c1ccccc1Cl
  PMP22 txn = u
  HTT prom inh = 28µM*

C=C(C)[C@H]1CN[C@H](C(=O)O)[C@H]1CC(=O)O
  PMP22 txn = x
  HTT prom inh = 0%

CCN(C(C)=O)c1cccc(-c2ccnc3c(C#N)cnn23)c1
  PMP22 txn = x
  HTT prom inh = 3%

Cc1oc(-c2ccc(Cl)cc2)nc1CN1C(=O)CN=C(c2ccccc2)c2ccccc21
  PMP22 txn = u
  HTT prom inh = u

Cc1cccc(NC(=O)Cn2cc(C(=O)c3ccccc3)c3ccccc32)c1
  PMP22 txn = u
  HTT prom inh = -36%

CCC(=O)C(CC(C)N(C)C)(c1ccccc1)c1ccccc1 (stereo not given)
  PMP22 txn = x
  HTT prom inh = -6%[116 µM]

Cc1ccc(Cl)c(O)c1
  PMP22 txn = x
  HTT prom inh = 3%

CC(Cc1ccc2c(c1)OCO2)NO (stereo not given)
  PMP22 txn = x
  HTT prom inh = 14%[116 µM]

CCc1cccc(NC(=O)CN2C(=O)CN=C(c3ccccc3F)c3cc(Cl)ccc32)c1
  PMP22 txn = u
  HTT prom inh = u

O=[N+]([O-])c1cc([As](=O)(O)O)ccc1O
  PMP22 txn = x
  HTT prom inh = 6%

CC1=C(O)C(=O)C=C2C1=CC=C1[C@@]2(C)CC[C@@]2(C)[C@@H]3C[C@](C)(C(=O)O)CC[C@]3(C)CC[C@]12C
  PMP22 txn = x
  HTT prom inh = u

COc1c2c(cc3c1OCO3)CCN(C)C2
  PMP22 txn = x
  HTT prom inh = 2%

O=C1NCN(c2ccccc2)C12CCN(CC1COc3ccccc3O1)CC2 (stereo not given)
  PMP22 txn = x
  HTT prom inh = -4%

COc1ccc2[nH]cc(CCN(C(C)C)C(C)C)c2c1
  PMP22 txn = x
  HTT prom inh = 3%[116 µM]

Cc1ccc(NC(=O)CN2C(=O)CN=C(c3ccccc3)c3ccccc32)c(C)c1
  PMP22 txn = 3%
  HTT prom inh = u

Cc1ccc(CN2C(=O)c3ccccc3Sc3ccc(C(=O)N4CCC5(CC4)OCCO5)cc32)cc1
  PMP22 txn = u
  HTT prom inh = u

O=C(Nc1ccc2c(c1)OCO2)c1cccn(Cc2ccccc2)c1=O
  PMP22 txn = -17%
  HTT prom inh = 15%

O=C(O)c1ccc2[nH]cc(CCCCN3CC=C(c4ccccc4)CC3)c2c1
  PMP22 txn = x
  HTT prom inh = -4%

For convenience, some entries already given.
Cc1oc(-c2ccc(Cl)cc2)nc1CN1C(=O)CN=C(c2ccccc2)c2ccccc21
  PMP22 txn = u
  HTT prom inh = u

Cc1cccc(NC(=O)Cn2cc(C(=O)c3ccccc3)c3ccccc32)c1
  PMP22 txn = u
  HTT prom inh = -36%

CCC(=O)C(CC(C)N(C)C)(c1ccccc1)c1ccccc1 (stereo not given)
  PMP22 txn = x
  HTT prom inh = -6%[116 µM]

Cc1ccc(Cl)c(O)c1
  PMP22 txn = x
  HTT prom inh = 3%

CC(Cc1ccc2c(c1)OCO2)NO (stereo not given)
  PMP22 txn = x
  HTT prom inh = 14%[116 µM]

CCc1cccc(NC(=O)CN2C(=O)CN=C(c3ccccc3F)c3cc(Cl)ccc32)c1
  PMP22 txn = u
  HTT prom inh = u

O=[N+]([O-])c1cc([As](=O)(O)O)ccc1O
  PMP22 txn = x
  HTT prom inh = 6%

CC1=C(O)C(=O)C=C2C1=CC=C1[C@@]2(C)CC[C@@]2(C)[C@@H]3C[C@](C)(C(=O)O)CC[C@]3(C)CC[C@]12C
  PMP22 txn = x
  HTT prom inh = u

COc1c2c(cc3c1OCO3)CCN(C)C2
  PMP22 txn = x
  HTT prom inh = 2%

O=C1NCN(c2ccccc2)C12CCN(CC1COc3ccccc3O1)CC2 (stereo not given)
  PMP22 txn = x
  HTT prom inh = -4%

COc1ccc2[nH]cc(CCN(C(C)C)C(C)C)c2c1
  PMP22 txn = x
  HTT prom inh = 3%[116 µM]

Cc1ccc(NC(=O)CN2C(=O)CN=C(c3ccccc3)c3ccccc32)c(C)c1
  PMP22 txn = 3%
  HTT prom inh = u

Cc1ccc(CN2C(=O)c3ccccc3Sc3ccc(C(=O)N4CCC5(CC4)OCCO5)cc32)cc1
  PMP22 txn = u
  HTT prom inh = u

O=C(Nc1ccc2c(c1)OCO2)c1cccn(Cc2ccccc2)c1=O
  PMP22 txn = -17%
  HTT prom inh = 15%

O=C(O)c1ccc2[nH]cc(CCCCN3CC=C(c4ccccc4)CC3)c2c1
  PMP22 txn = x
  HTT prom inh = -4%

These rows are one share of the data, so the mix of outcomes need not match the whole.
